Assay outcomes deposited in PubChem by National Center for Advancing Translational Sciences (NCATS).
Lassa entry inh: Lassa virus entry inhibition; Lassa virus pseudotype entry inhibition, cell reporter; control for the full effect not named in the record; Potency, µM (highest dose often 37.9 µM), inactives show at the highest dose activity change, negative = inhibition, actives largely listed as inhibitors; 1.2% of 300,000 active; active means well fitted inhibition curve with a large enough effect; inconclusive means small, poorly fitted or top-dose-only effect, or effect the other way; inactive means flat fitted curve, though single readings scatter; tested in HEK293 cells; further: on the % scale 0 is the no-effect control and ±100 the full control effect; nearly all actives have a fitted effect of over 50% in size; luciferase read-out
SARS PLpro yeast: blocks SARS-CoV papain-like protease in a yeast assay; S. cerevisiae expressing SARS-CoV PLpro, growth rescue; control for the full effect not named in the record; Potency, µM (titrated, usually from 32.9 µM), for the others: at the top dose activity, positive = growth rescue; 0.19% of 330,000 active; active means well fitted rising curve with a large enough effect; inconclusive means small, poorly fitted or top-dose-only effect; inactive means no such curve, though single readings can be large or run the other way; further: 0% is about no effect; nearly all actives have a fitted effect of over 55% in size; growth read by luminescence after 48 h
MARV entry inh: inhibitors of Marburg virus binding or cell entry; AID 540276; Marburg virus pseudotyped entry inhibition, cell reporter; control for the full effect not named in the record; about a third of the inactives were read at about 46 µM; Potency, µM (series often up to 37.8 µM), for the others: at the highest dose activity change, negative = inhibition, usual class: inhibitors; 1.8% of 300,000 active; active = well fitted inhibition curve with a large enough effect; inconclusive = small, poorly fitted or top-dose-only effect, or effect the other way; inactive = flat fitted curve, though single readings scatter; tested in HEK293 cells; about a fifth of its hits are not listed in these tables; further: on the % scale 0 is the no-effect control and ±100 the full control effect; luciferase read-out
Cruzain inh Det: inhibitors of Trypanosoma cruzi cruzain with detergent | Potency, µM, inactives show max response, negative = inhibition, usual class: inhibitors | purified cruzain, Z-FR-AMC fluorescence, 0.01% Triton | 0.43% of 200,000 active | P25779;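 further: plate controls were neutral wells for no effect and buffer without enzyme for full effect; nearly all actives have a fitted effect of over 40% in size; top concentration of the series not given in the record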
Target sequence (P25779 123-467 limits assumed): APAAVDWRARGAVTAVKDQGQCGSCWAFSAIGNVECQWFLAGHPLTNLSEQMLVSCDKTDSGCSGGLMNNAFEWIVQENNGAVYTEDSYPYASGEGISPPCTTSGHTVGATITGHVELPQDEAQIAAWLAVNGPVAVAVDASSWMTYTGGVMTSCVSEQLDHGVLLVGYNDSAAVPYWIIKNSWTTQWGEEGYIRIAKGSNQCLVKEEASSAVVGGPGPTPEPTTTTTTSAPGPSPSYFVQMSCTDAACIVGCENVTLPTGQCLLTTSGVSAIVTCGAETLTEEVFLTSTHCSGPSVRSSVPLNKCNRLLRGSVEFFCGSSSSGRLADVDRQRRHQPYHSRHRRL
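Read-out: AMC fluorescence (360 nm excitation, 450 nm emission), four reads over 2 min, first-to-third difference used. Conditions: cruzain 1.5 nM, Z-FR-AMC 2 uM, pH 5.5 acetate, 5 mM DTT, 0.01% Triton X-100.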
RE007 growth inh: less growth of the S. pombe RE007 Vpr strain. Potency, µM (highest dose often 92.2 µM), inactives show at the top dose activity change, negative = less growth. AID 651644. 0.21% of 360,000 active. S. pombe RE007 Vpr strain, BacTiter-Glo ATP luminescence, 24 h; control for the full effect not named in the record; active = well fitted falling curve with a large enough effect; inconclusive = small, poorly fitted or top-dose-only effect; inactive = no such curve, though single readings can be large or run the other way;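 further: on the % scale 0 is the no-effect control and ±100 the full control effect; nearly all actives have a fitted effect of over 50% in size; the assay follows cell death caused by Vpr and the record does not say whether a fall means rescue or toxicity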
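Fission yeast strain RE007, carrying one chromosomally integrated HIV-1 vpr copy, was seeded at OD 0.01 in PMG+AL medium with 23 nL pinned compound. After 24 h at 30 °C and 99% humidity, viability was read by BacTiter-Glo luminescence.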
NS1 inh: inhibitors of influenza NS1 protein function | S. cerevisiae slowed by influenza A NS1, growth recovery by OD600 | Potency, µM (top dose mostly 46.1 µM), inactives show top-dose activity, positive = more growth | 0.4% of 270,000 active | AID 2326; active means well fitted rising curve with a large enough effect; inconclusive means small, poorly fitted or top-dose-only effect; inactive means no such curve, though single readings can be large or run the other way; further: nearly all actives have a fitted effect of over 50% in size
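A cell-based growth assay was used: compounds that relieve NS1-induced slow growth of budding yeast raise OD600. Assay medium was yeast nitrogen base with ammonium sulphate and -URA supplement, pH 6.0, with 2% galactose.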
StopGo reporter: lowers the luciferase signal of an FMDV 2A StopGo reporter; AID 1159524; Potency, µM (top dose mostly 57.9 µM), inactives show top-dose signal change, negative = less light; 1.2% of 410,000 active; human cells with a luciferase reporter of 2A StopGo recoding; control for the full effect not named in the record; active = well fitted falling curve with a large enough effect; inconclusive = small, poorly fitted or top-dose-only effect; inactive = no such curve, though single readings can be large or run the other way; tested in HEK293T cells; further: on the % scale 0 is the no-effect control and ±100 the full control effect; nearly all actives have a fitted effect of over 45% in size; luciferase light after 4 h
Cruzain inh noDet: blocks cruzain activity in detergent-free assay. P25779. purified cruzain, Z-FR-AMC fluorescence, no detergent. Potency, µM, for the others: max response, negative = inhibition, most hits filed as inhibitors. 2.3% of 200,000 active. AID 1476;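 further: plate controls were enzyme without inhibitor for no effect and buffer without enzyme for full effect; nearly all actives have a fitted effect of over 40% in size; top concentration of the series not given in the record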
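Detergent-free condition (0.00005% Triton X-100) in acetate buffer pH 5.5 with DTT. 1.5 nM enzyme and compound were pre-mixed 15 min, then 2 uM Z-FR-AMC substrate added; reaction progress from fluorescence change between first and third reads (60 s).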
* hit, by the source's call; ? = inconclusive; . = not tested or not shown; & = joins results of further samples; [ ] = remark or other dose. Unless noted, the call rests on the fitted dose curve; in most records, active means well fitted curve in the direction sought with a large enough effect; inconclusive means small, poorly fitted or top-dose-only effect, or another doubt; inactive means no such curve, though single readings can be large; an effect the other way counts as inactive or inconclusive. Potency means the concentration at half of the fitted maximal effect. The order is random; any-hit rate near 4.7%.

Value order: Lassa entry inh	SARS PLpro yeast	MARV entry inh	Cruzain inh Det	RE007 growth inh	NS1 inh	StopGo reporter	Cruzain inh noDet
CC(=O)Nc1ccc(S(=O)(=O)Oc2ccc(N3C(=O)C4CCCCC4C3=O)cc2)cc1 (configuration not stated)
    -2%	4%	-1%	-11%	20%	-14%	?	8%
O=C(NCc1ccco1)c1ccc(Cn2c(=O)c3ccccc3n(Cc3cccc(Cl)c3)c2=O)cc1
    -9%	-3%	?	0.7%	-2%	11%	0%	?
Cc1cc(OCC(=O)N[C@@H](CSCc2ccccc2)C(=O)O)c2c(C)c(C)c(=O)oc2c1
    .	0%	.	.	-10%	13µM*	-19%	.
Cn1c(=O)c2c(-c3ccccc3)n3c(c2n(C)c1=O)C(c1ccco1)Nc1ccccc1-3 (configuration not stated)
    ?	.	4%[46.1 µM]	-4.8%	.	.	?	1%
CCCCOc1cccc(C(=O)Nc2ccc(NC(=O)c3ccco3)cc2)c1
    .	-2%	3%[46.1 µM]	.	0%	3%	-8%	.
CN1C(=S)SC(/[N+]([O-])=C\c2ccc(Cl)cc2)C1(C)C (configuration not stated)
    ?	11%	-13%	-0.7%	-3%	4%	11%	-7%
CCOC(=O)Cn1c(C)nc2c(C(=O)OCC)sc(C)c2c1=O
    2%	5%	?	1.4%	-3%	-6%	0%	-2%
CCC(C(=O)N1CCN(c2ccccc2)CC1)n1nc(C)c2sc3ccccc3c2c1=O (configuration not stated)
    -1%[46.1 µM]	.	1%[46.1 µM]	-2.9%	.	.	-17%	10%
CCOC(=O)C1CCCN(S(=O)(=O)c2ccc3c4c2CC(=O)N4CC(C)S3)C1 (configuration not stated)
    .	1%	.	.	-3%	24%	?	.
COc1cccc(OC)c1C(=O)N1CCN(Cc2ccc3c(c2)OCO3)CC1
    -10%	6%	-14%	1.7%	0%	-5%	-16%	6%
CCCCn1cc2c(c1-c1ccccc1Br)c(=O)n(C)c(=O)n2C
    -15%[46.1 µM]	.	-22%[46.1 µM]	-3.2%	.	.	?	6%
Cc1ccccc1NS(=O)(=O)c1cc2c(cc1C)N(C)CCO2
    .	-1%	.	.	-3%	14%	63%[activator]	.
Cc1ccc(-c2nc3ccccc3c(=O)n2O)cc1
    26%[46.1 µM]	4%	5%[46.1 µM]	.	?	-79%	10%	.
CCOC(=O)N1CCN(C(=O)C2CCN(Cc3cccc(OCc4ccccc4)c3)CC2)CC1
    -4%	-12%	-23%	-1.9%	21%	-5%	?	-5%
O=C(/C=C/c1ncc(C(F)(F)F)cc1Cl)OCc1ccccc1
    5%	4%	0%	-4.4%	10%	-2%	-15%	4%

Later entries
Value order: Lassa entry inh	SARS PLpro yeast	MARV entry inh	Cruzain inh Det	RE007 growth inh	NS1 inh	StopGo reporter	Cruzain inh noDet
O=C1COc2cccnc2N1
    22%	-5%&0%	3%&3%	-2.3%	8%	-7%&5%	3%	1%
Cc1ccccc1OC(=O)CSc1nnc(-c2ccc3c(c2)OCO3)o1
    -27%[46.1 µM]	.	4%[46.1 µM]	-6.4%	.	.	?	4%
CCC(C)(C)C1CCc2[nH]nc(C(=O)N/N=C(\C)c3ccco3)c2C1 (configuration not stated)
    ?	-4%	?	.	-8%	10%	0%	.
O=C(CN(C(=O)CCC(=O)Nc1nccs1)c1ccccc1F)NCc1ccc2c(c1)OCO2
    6%	7%	-4%[46.1 µM]	.	16%	6%	33%	.
COc1cccc(C(=O)N(Cc2cccc(Cl)c2)Cc2ccco2)c1
    18%[46.1 µM]	.	-10%[46.1 µM]	-9.5%	.	.	0%	-6%
COc1ccc(C2(CNC(=O)c3ccccc3)CCOCC2)cc1
    9%	0%	0%[14.2 µM]	.	-10%	-4%	5%	.
CC(=O)NCCC(=O)Nc1ccc(C)c(F)c1
    8%	2%	?	2.5%	-1%	3%	5%	-9%
CCOc1cc(NC(=O)c2ccccc2OC)c(OCC)cc1NC(=O)c1ccccc1
    .	14%	.	.	-8%	4%	-11%	.
Cc1c(C)n(C)c2ccc(C(=O)NCCCN3CCCCC3C)cc12 (configuration not stated)
    2%[46.1 µM]	12%	.	7.6%	-6%	22%	-2%&-12%	6%
Cc1nnc(SCc2cnc(-c3ccc(C(C)C)cc3)s2)n1C
    -4%	9%	4%	-1.9%	21%[3.69 µM]	-8%	-11%	8%
O=c1[nH]c2ccccc2nc1C(Nc1ccccc1)c1ccccc1 (configuration not stated)
    .	0%	.	.	9%	5%	-22%	.
CCCc1ccc(OCCNC(=O)CC)cc1
    ?	3%	5%	-1.4%	-5%	4%	40%[activator]	5%
O=C(NC1CCCCC1)c1ccc(OC2CCN(Cc3ccccn3)CC2)cc1
    25%	-2%	3%	.	-6%	-14%	-11%	.
O=C(Nc1ccccc1Cl)C1CCCN(S(=O)(=O)c2cccc3cccnc23)C1 (configuration not stated)
    .	5%	.	.	23%	14%	-29%	.
COc1ccc(C(=O)Nc2ccc(S(=O)(=O)Nc3nccc(C)n3)cc2)cc1[N+](=O)[O-]
    .	5%	.	.	2%	14%	9%	.

Additional results:
Value order: Lassa entry inh	SARS PLpro yeast	MARV entry inh	Cruzain inh Det	RE007 growth inh	NS1 inh	StopGo reporter	Cruzain inh noDet
CCCCC(=O)OCc1cn(-c2ccc(Cl)cc2)nn1
    2%	-5%	10%	-2.3%	-11%	-27%	-3%	-8%
Cc1cc(C)cc(NC(=O)N2CCCC2C(=O)Nc2ccc(-n3cnnn3)c(C)c2)c1 (configuration not stated)
    -2%	0%	-8%	-3.7%	2%	10%	-14%	-9%
O=C(O)c1cccc(CSc2ncccn2)c1
    15%	2%	17%	3.1%	11%	2%	.	-12%
CC(=O)Nc1ccc(-c2c(C)cc3oc(=O)cc(-c4ccccc4)c3c2C)cc1
    .	-3%	.	-1.0%	-12%	.	0%	-22%
COc1ccc(CNc2oc(/C=C/c3cc(OC)c(OC)c(OC)c3)nc2C#N)cc1
    ?	.	-15%[46.1 µM]	12%	.	.	-19%	?
CC(=O)c1c(OC(=O)c2ccccc2)c2ccccc2n1C
    -13%	-9%	-1%	-6.8%	-5%	-30%	.	-5%
COc1cc2c(cc1OC)C(COc1ccc(F)cc1)NCC2 (configuration not stated)
    .	-8%	.	.	6%	6%	-24%	.
Cc1cc(OCC(=O)N(Cc2ccc(N(C)C)cc2)Cc2ccco2)cc(C)c1Cl
    0%[46.1 µM]	.	-11%[46.1 µM]	-9.6%	.	.	?	?
COc1ccc(N2CCN(CC(=O)Nc3c(C)cc(C)cc3C)CC2)cc1
    -18%	0%	-11%	2.6%	-2%	-39%	-7%	13%
Cc1ccc(CNC(=O)C(=O)NCC2OCCN2S(=O)(=O)c2ccc3c(c2)OCCO3)cc1 (configuration not stated)
    -28%	14%	3%	1.3%	8%	?	-3%	-12%
COc1ccc(N2CC(NC(=O)Cc3cccs3)CC2=O)cc1 (configuration not stated)
    -5%[46.1 µM]	.	.	-0.8%	.	.	-6%	-2%
COC(=O)CCCC(=O)N1CCC(CCC(=O)NC2CC2)CC1
    .	9%	.	.	2%	-8%	1%	.
Cc1ccc(CC(=O)NCc2nc(-c3ccccc3)no2)cc1
    -4%[46.1 µM]	.	1%[46.1 µM]	-7.0%	.	.	-8%	-17%
CNC(=O)c1ccsc1NC(=O)c1ccc(S(=O)(=O)N2CCOCC2)cc1
    ?	5%	-9%	-8.5%	19%	-7%	-9%	-9%
O=C(O)c1cccc(NS(=O)(=O)c2ccc(Cl)c(C(=O)O)c2)c1
    6%	0%	-6%	-0.4%	2%	-1%	4%	1%

(further entries)
Value order: Lassa entry inh	SARS PLpro yeast	MARV entry inh	Cruzain inh Det	RE007 growth inh	NS1 inh	StopGo reporter	Cruzain inh noDet
CCCCNC(=O)N(O)C1N(/N=C/c2ccccc2OC)C(=S)SC1(C)C (configuration not stated)
    -18%	1%	?	.	-22%	2%	72%[activator]	.
CCc1nnc(NC(=O)CSc2nnc3ncccn23)s1
    4%	4%	?	1.9%	1%	3%	-5%	-3%
Cc1cc[n+](CC(=O)c2ccc3c(c2)OCCO3)cc1
    10%	20%	-11%[46.1 µM]	-2.8%	0%	1%	-13%	4%
CC1CC(C)CN(C(=O)C2CCCN(S(=O)(=O)c3cnc[nH]3)C2)C1 (configuration not stated)
    .	0%	.	.	-13%	-7%	23%	.
COc1ccccc1OCCNC(=O)C1CCCCC1
    6%[46.1 µM]	1%	-2%[46.1 µM]	.	24%	-2%	-9%	.
Cc1nn(C)c(C(=O)NC(=S)Nc2ccccc2O)c1Cl
    6%[46.1 µM]	-5%	1%[46.1 µM]	.	-25%	-49%	9%	.
COc1ccc(S(=O)(=O)Nc2cc(C(=O)NCCC(C)C)ccc2N2CCOCC2)cc1
    ?	-1%	-5%&0%	-14%	2%	-17%	26%	?
CN1c2ccccc2C(C)(C)C12CC(c1ccc(Cl)c(S(=O)(=O)N3CCCC3)c1)=NO2 (configuration not stated)
    -9%	12%	22%	0.9%	.	15%	.	3%
CC(C)c1ccc(S(=O)(=O)N2CCN(C(=O)[C@@H]3CCCN3C(=O)c3cccs3)CC2)cc1
    12%	0%	6%	.	-18%	.	-11%	.
CCOC(=O)CCC(=O)N(CCN(C(=O)CCC(=O)OCC)c1ccccc1)c1ccccc1
    -6%	-15%	6%	1.4%	-5%	-3%	0%	30%
Oc1c(CN2CCOCC2)cc(CN2CCOCC2)c(O)c1CN1CCOCC1
    3%[46.1 µM]	.	4%[46.1 µM]	.	4%	.	-2%	.
COC(=O)c1cc(S(=O)(=O)NCc2ccc(S(N)(=O)=O)cc2)oc1C
    3%	0%	-9%[46.1 µM]	.	-1%	7%	-19%	.
CC1CCN(S(=O)(=O)c2cn(CC(=O)N3CC(C)CC(C)C3)c(=O)c3ccccc23)CC1 (configuration not stated)
    5%	-3%	?	-0.7%	-3%	11%	-4%	0%
